RE007 growth inh: less growth of the S. pombe RE007 Vpr strain; S. pombe RE007 Vpr strain, BacTiter-Glo ATP luminescence, 24 h; control for the full effect not named in the record; Potency, µM (doses to about 92.2 µM), for the others: at the highest dose activity change, negative = less growth; 360,000 compounds, 0.21% hits; AID 651644; active = well fitted falling curve with a large enough effect; inconclusive = small, poorly fitted or top-dose-only effect; inactive = no such curve, though single readings can be large or run the other way;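 also: nearly all actives have a fitted effect of over 50% in size; the assay follows cell death caused by Vpr and the record does not say whether a fall means rescue or toxicity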
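Fission yeast strain RE007, carrying one chromosomally integrated HIV-1 vpr copy, was seeded at OD 0.01 in PMG+AL medium with 23 nL pinned compound. After 24 h at 30 °C and 99% humidity, viability was read by BacTiter-Glo luminescence.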
2A StopGo: lowers the luciferase signal of an FMDV 2A StopGo reporter. human cells with a luciferase reporter of 2A StopGo recoding; control for the full effect not named in the record. Potency, µM (series often up to 57.9 µM), for inactives: at the highest dose signal change, negative = less light. 410,000 compounds, 1.2% hits. AID 1159524; active = well fitted falling curve with a large enough effect; inconclusive = small, poorly fitted or top-dose-only effect; inactive = no such curve, though single readings can be large or run the other way; tested in HEK293T cells; also: nearly all actives have a fitted effect of over 45% in size; luciferase light after 4 h
* = called active by the depositor; ? = inconclusive; [ ] = remark or other dose. % is scaled to controls: 0 for no effect and ±100 for the full control effect; potency is read from the fitted curve at half-maximal effect.

Value order: RE007 growth inh | 2A StopGo
COc1ccccc1CCC(=O)Nc1ccc2c(c1)c(=O)n(C)n2Cc1cccc(C(F)(F)F)c1
  5.6% | -6.0%
O=C(NCc1ccccc1)c1cc(C2COCCN2S(=O)(=O)c2ccccc2)on1 (stereo not drawn)
  -0.8% | -10.6%
COc1ccc(-c2ccc3c(c2)[C@@H]2C[C@H](N(C)C(=O)C(C)(C)C)[C@H]([C@H](C)O)C(=O)N2CC3)cc1
  -2.3% | -9.9%
Cc1nc(Cc2nnc(SCC(=O)N3c4ccccc4NC(=O)C3(C)C)o2)cs1
  11.4% | -25.3%
C=CCn1nc(C(=O)N2CCOCC2)cc1-c1sc(NC(=O)c2ccccc2)nc1C
  -11.3% | ?
C[C@@H]1CN([C@H](C)CO)C(=O)CCCn2nncc2CO[C@@H]1CN(C)S(=O)(=O)c1ccc(Cl)cc1
  -18.1% | 0.0%
CC(C)(C(=O)N1CCC1(C)C(=O)Nc1ccccc1Br)c1ccccc1 (stereo not drawn)
  -16.5%[18.4 µM] | -19.5%
CC(=O)c1cccc(-c2cnc3c(NC=O)cc(-c4ccc(F)cc4)cn23)c1
  -8.2%[18.4 µM] | -26.2%
Cc1csc(=O)n1CCC(=O)OCC(=O)NCc1ccccc1
  -14.3% | -6.8%
C/C(=N/NC(=O)c1ccc(C(C)(C)C)cc1)c1cccnc1
  8.9% | 45.9%[activator]
CC(C)NC(=O)C1(C)CCN1Cc1ccc(C(F)(F)F)cc1 (stereo not drawn)
  2.9%[18.4 µM] | -17.7%
COc1ccc(C(c2nnnn2-c2ccc3c(c2)OCCO3)N2CCN(C/C=C/c3ccccc3)CC2)cc1 (stereo not drawn)
  -19.5% | 4.1%
Cc1ccccc1-c1ccc2c(c1)CNCc1cnnn1-2
  1.0% | 0.0%
COC(=O)c1cn(Cc2ccc(F)cc2)c2ccccc12
  11.5% | -26.9%
COc1cccc(CN2CC(C(=O)NCCc3nccs3)CCC2=O)c1 (stereo not drawn)
  0.9% | -4.2%
C[C@@H]1CN([C@@H](C)CO)S(=O)(=O)c2ccc(C#CC3CCCCC3)cc2O[C@@H]1CN(C)Cc1cccnc1
  1.2% | -14.2%
COc1cccc(-c2cccc(-c3nc(C(=O)Nc4ccc(-c5ccccc5)cc4)cc4c3[C@H](CCO)N(S(=O)C(C)(C)C)C4)c2)c1 (stereo partly drawn)
  3.4% | -11.2%
COc1cccc(CN(CCC(=O)O)Cc2cccc(OC)c2)c1
  6.7% | -5.9%
OC[C@@H]1CN(CCNc2ccccc2)C[C@H](n2cnc3c(NCc4ccncc4)ncnc32)O1
  -1.7% | -8.9%
C[C@H](CO)N1C[C@H](C)[C@@H](CN(C)CC2CCOCC2)Oc2cc(C#Cc3ccccc3F)ccc2S1(=O)=O
  -6.1% | 17.4%
COc1ccccc1-c1ccc2c(c1)C(C)(Cc1ccc(Cl)cc1)C(=O)N2 (stereo not drawn)
  6.5% | -6.9%
CCOC(=O)C1CCCN(C(=O)c2cc(C#N)cs2)CC1 (stereo not drawn)
  1.1%[18.4 µM] | -18.6%
COC(=O)C[C@H]1c2cc(F)ccc2S(=O)(=O)N1C(C)C
  -18.0% | -8.8%
COc1ccc([C@@H]2C[C@H]3[C@@H](CN2S(=O)(=O)c2ccccc2)C(=O)C[C@@H](c2cccc4ccccc24)N3S(=O)(=O)c2ccc(C)cc2)cc1
  11.4% | -4.9%
COc1cc(-c2ccc3oc(-c4ccsc4)cc3c2)cc(OC)c1OC
  2.1% | -11.2%
CC(C)c1ccc(CN2CCC(C)(Oc3ccc(Cl)cc3)C2)cc1 (stereo not drawn)
  -7.3%[18.4 µM] | -4.3%
OC(c1cccc(Cl)c1)c1nc(-c2ccc(F)c(Cl)c2)cs1 (stereo not drawn)
  ? | 3.7%
CCCCNC(=O)C(NC(=O)c1ccc(C(F)(F)F)cc1)C(=O)c1ccccc1 (stereo not drawn)
  6.8% | -8.1%
COc1ncccc1-c1cnc2cccnn12
  18.5% | -13.8%
CC1(C(=O)NCc2ccco2)Cc2c(-c3cccc(C(N)=O)c3)ccnc2O1 (stereo not drawn)
  8.3% | 2.2%
Clc1cccc(-c2cc3nc(NCCOc4ccccc4)ccn3n2)c1
  -0.1% | 26.2%
CCOC(=O)C1=CCN(S(=O)(=O)c2cccc(Cl)c2)C1c1cccc(F)c1 (stereo not drawn)
  6.4% | ?
Nc1ccccc1N1C(=O)c2cccc3cccc(c23)C1=O
  -1.9% | 1.1%
C[C@H](NC(=O)C[C@@H]1CC[C@H]2[C@@H](COC[C@H](O)CN2Cc2ccc(C(F)(F)F)cc2)O1)c1ccccc1
  1.7% | -23.3%
O=C(Cn1cc(C(F)(F)F)ccc1=O)Nc1ccc2c(c1)OCO2
  -0.1% | -10.5%
C=CCSc1nc2c(N)ncnc2n1C1OC(CO)C(O)C1O (stereo not drawn)
  -3.8% | -11.5%
Cc1ccc(-c2nnnn2-c2ccccc2C(=O)O)cc1
  1.0% | -11.8%
Cc1ccc(C)c(CC(=O)N2CCCC(c3cc(C(=O)Nc4ccc5c(c4)OCO5)no3)C2)c1 (stereo not drawn)
  5.0% | ?
NC1(CO)COC(c2ccccc2)OC1 (stereo not drawn)
  3.2% | 0.0%
CCC(=O)N=c1sc2cc(F)cc(F)c2n1C
  1.1% | 30.5%[activator]
COc1ccc(NC(=O)Nc2ccc(O)c3ccccc23)cc1
  -23.7% | -9.0%
CC1CCN(C(=O)c2ncn3c2c(=O)[nH]c2ccccc23)CC1
  -8.4% | -6.9%
Cc1ccc(S(=O)(=O)N2C[C@H]3C(=O)C[C@@H](c4cccc(Cl)c4)N(S(=O)(=O)c4ccc(C)cc4)[C@H]3C[C@H]2c2ccc(Cl)cc2)cc1
  2.4% | -26.9%
C[C@H](NC(=O)[C@@H]1CCCN1C(=O)[C@@H]1CCCN1C(=O)c1ccc(Cl)cc1)c1ccccc1
  4.1% | -17.2%
COc1ccc(-c2ccc3c(c2)c(Sc2ccccc2)c(-c2ccccc2)n3C)cn1
  6.7% | -21.6%
NC(=O)CCC(NC(=O)OCc1ccccc1)C(=O)OCC(=O)c1ccccc1 (stereo not drawn)
  -3.4% | 4.7%
C[C@H](CO)N1C[C@H](C)[C@@H](CN(C)C(=O)Nc2cc(F)ccc2F)Oc2ncc(-c3cccc(F)c3)cc2C1=O
  14.4% | 43.1%[activator]
CC1(C(=O)Nc2ccc3c(c2)OCCO3)CCC(=O)N1CC(F)(F)F (stereo not drawn)
  2.5% | 0.0%
NC(c1ccccc1)c1csc(NC(=O)Nc2cccc(Cl)c2)n1 (stereo not drawn)
  17.9% | -5.3%
Cn1cc([C@]2(O)C(=O)Nc3ccc(Br)cc32)c2ccccc21
  -7.9% | -9.3%
OC(c1ccccc1)c1nc(-c2cc3ccccc3o2)cs1 (stereo not drawn)
  8.5%[18.4 µM] | 16.5%
Cc1cccc(S(=O)(=O)N[C@@H]2CC[C@@H](CCNS(=O)(=O)c3ccccc3F)O[C@@H]2CO)c1
  33.2% | -2.6%
CC1Oc2cc3oc4c(O)c(O)ccc4c(=O)c3c(O)c2C1(C)C (stereo not drawn)
  ? | -18.7%
CC(C)C[C@@H](CN)NC(=O)c1nc[nH]c1C(=O)N[C@@H](Cc1ccccc1)C(=O)CNC[C@H](C)NC(=O)c1nc[nH]c1C(=O)N[C@@H](CC(C)C)C(=O)O
  -0.5% | -22.6%
CC1=C(C(=O)N2CCOCC2)CC(CC(=O)NC2CC2)C(=O)N1Cc1ccc(C(C)(C)C)cc1 (stereo not drawn)
  34.0% | -20.5%
CCCCn1c(N)c(N(Cc2ccccc2OC)C(=O)C(C)Oc2cccc(Cl)c2)c(=O)[nH]c1=O (stereo not drawn)
  -6.9% | -20.8%
COc1ccc(CCNC2(C#N)CCCCC2)cc1OC
  -3.5% | -7.9%
OCCN1CCN(CC/C=C2/c3ccccc3CSc3ccccc32)CC1
  -17.0% | -15.6%
OC[C@@H]1CN(Cc2ccncc2)C[C@H](n2cnc3c(N4CCCC4)ncnc32)O1
  7.6% | -11.4%
COC(=O)c1ccc(CC2(C)C(=O)Nc3ccc(-c4cccc(C(F)(F)F)c4)cc32)o1 (stereo not drawn)
  11.5% | -21.8%

Rewritten bar-delimited: entries from further up
canonical_smiles | RE007 growth inh | 2A StopGo
C=CCSc1nc2c(N)ncnc2n1C1OC(CO)C(O)C1O (stereo not drawn) | -3.8% | -11.5%
NC1(CO)COC(c2ccccc2)OC1 (stereo not drawn) | 3.2% | 0.0%

Other results follow.
Value order: RE007 growth inh | 2A StopGo
Cn1c(OCC2CCCO2)nc2cc(-c3ccccc3)sc2c1=O (stereo not drawn)
  -23.4% | -5.5%
COC(=O)C[C@H]1c2ccccc2S(=O)(=O)N1Cc1ccc(OC)cc1
  -2.1% | -11.7%
CCCCN1C(N)=NC[C@@H]1Cc1ccccc1
  -11.6% | -18.6%
COCCN(C(=O)c1ccc2c(c1)S(=O)(=O)N=C1CCCCCN12)c1c(N)n(CC(C)C)c(=O)[nH]c1=O
  9.5% | -7.8%
C[C@@H]1CN([C@@H](C)CO)C(=O)CCCn2cc(nn2)CO[C@H]1CN(C)S(=O)(=O)c1ccccc1F
  -2.6% | 0.0%
CCOC(=O)C1=C(COC(=O)C2CC(=O)N(c3ccccc3CC)C2)NC(=O)NC1C (stereo not drawn)
  -4.5% | -20.2%
C[C@H](O)[C@@H]1C(=O)N2CCc3c([nH]c4ccccc34)[C@@H]2C[C@@H]1N(C)Cc1ccc2c(c1)OCO2
  -14.0% | 0.0%
COC(=O)C(C(=O)OC)c1ccccc1NS(=O)(=O)c1ccc(C)cc1
  -5.2% | -15.8%
COC(=O)CCCC[C@@H]1O[C@H](CCc2ccccc2)CC2=C1C(=O)OC(C)(C)O2
  -2.8% | 0.0%
COc1cc(C(=O)N(Cc2ccccc2)c2cccc(C)c2)ccc1OCC(=O)N1CCOCC1
  0.2% | -19.2%
OC[C@@H]1CN(Cc2ccc(F)cc2)C[C@H](n2cnc3c(NCc4ccco4)ncnc32)O1
  16.0% | -23.9%
CC(C)CNC(=O)C1(C)CCCN1C(=O)C(C)(C)Oc1ccc(Cl)cc1 (stereo not drawn)
  6.5% | -13.3%
CC(C)(C)OC(=O)N1CCN(C(=O)OCC2c3ccccc3-c3ccccc32)CC1C(=O)O (stereo not drawn)
  3.5% | 1.6%
Cc1ncoc1C(=O)NC1CCCc2c1cnn2-c1cc(F)cc(F)c1 (stereo not drawn)
  2.4% | -20.0%
CCOC(=O)C1=CCC(c2cccc3ccccc23)N(S(=O)(=O)c2ccc(C)cc2)C1 (stereo not drawn)
  -14.7% | -17.8%
COc1ccccc1C#Cc1cnc2c(c1)C(=O)N([C@H](C)CO)C[C@H](C)[C@@H](CN(C)S(=O)(=O)c1cn(C)cn1)O2
  4.2% | -2.6%
COC(=O)[C@]12CCCCC=C1N(CCC1=CCCCC1)C(=O)[C@H](CC(=O)NCC13CC4CC(CC(C4)C1)C3)C2
  4.1% | -16.5%
Clc1ccc2nc(-c3ccccc3)c(CC3CCCCC3)n2c1
  -5.4% | -22.0%
CC(C)(C)n1nnnc1C(C1CC1)N1CCN(C/C=C/c2ccccc2)CC1 (stereo not drawn)
  -4.3% | -32.6%
COc1ncnc2c1ncn2CCCN(C)Cc1ccco1
  17.4% | -5.9%
CC(C)CNC(=O)C1(C)CCCN1C(=O)c1csnn1 (stereo not drawn)
  19.0% | -16.2%
Cc1nc2c(OCC(=O)c3ccc(F)cc3)cccn2c1N(C)Cc1cccs1
  ? | 22.6%
CSc1ccc(CN2CCC2(C)C(=O)NCc2cccs2)cc1 (stereo not drawn)
  -22.5% | 0.0%
Clc1ccc(Br)c(-c2nc3ccccc3[nH]2)c1
  ? | 18.6%
Nc1ccccc1CCc1ccccc1N
  -20.6% | 16.5%
O=C(Nc1ccc2nc(N3CCOCC3)sc2c1)c1cc2ccccc2o1
  1.3% | -28.9%
Cn1cc(-c2csc(C(O)c3ccc(F)c(F)c3)n2)cn1 (stereo not drawn)
  -1.3%[18.4 µM] | -13.4%
CCOC(=O)[C@]12Cc3cc(Cl)ccc3[C@H]1N(C(C)C)C(=O)c1ccccc12
  -24.8% | 10µM*
CC(=O)NC(CCc1ccc(Cl)c(Cl)c1)c1cccc(O)c(=O)c1 (stereo not drawn)
  ? | ?
O=C(CCCN1C(=O)/C(=C\c2cccs2)SC1=S)Nc1ccccc1O
  -25.5% | 2.5%
COc1cc(/C=C/C(=O)O)cc(OC)c1O
  2.3%[18.4 µM] | -12.7%
COCC#Cc1cnc2c(c1)C(=O)N([C@H](C)CO)C[C@H](C)[C@@H](CN(C)S(=O)(=O)c1ccccc1)O2
  12.1% | 0.0%
CN(C)CCNC(=O)c1ccc(-c2cnn(C)c2)c2ccoc12
  -9.5% | -16.2%
O=C(Nc1ccc(F)c(Cl)c1)c1cc(C2CCCN(S(=O)(=O)c3cccs3)C2)on1 (stereo not drawn)
  7.6% | -3.1%
CC1(C)CC(=Cc2ccccc2[N+](=O)[O-])C(=O)c2ccccc21
  -13.4% | 4.9%

Screening results deposited in PubChem by National Center for Advancing Translational Sciences (NCATS).

This is a subset, so the mix of outcomes need not match the whole.
